# A1 inh: caspase 3/7 activation in MEF A1-2A-BIM cells, primary screen, A1 inhibitor project, cell-based, luminescence, HTS | Caspase-Glo 3/7 luminescence, 3 h; percent of clofoctol response, vehicle zero | caspase activation, % (concentration not given with the values) | actives 0.066% (n = 330,000);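 active = over half of replicate activation scores above 10%, or exactly half above 10 with the replicate mean above 10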;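 note: wells of about 30 µL received 50 nL stock; many hits fall short of the cut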
# rRNA inh HTS: reduced GFP signal of wild-type E. coli, primary screen, bacterial rRNA inhibitor project, GFP/RFP fluorescence, OD600, single point; GFP signal change (wild-type ribosome), % (no concentration beside the values); E. coli WT GFP vs humanized-ribosome RFP mutants, 24 h; stronger effect = lower value; DMSO median 0, no signal -100; actives 1.6% (n = 350,000); AID 720706, 2013;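 active = significant combined selectivity score with lowered wild-type GFP, culture density cut under 30%, mutant RFP and density less affected; inactive = any of these conditions unmet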; note: one replicate is shown; some compounds called inactive have numbers as strong as hits
# T cruzi inh: inhibitors of intracellular T. cruzi growth, primary screen, luminescence, NIH3T3 host cells; T. cruzi beta-gal in NIH3T3, 90 h; actives 1.4% (n = 300,000); inhibition, % (test concentration not listed);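 active = mean inhibition across valid replicates above about 55%, limit read from the data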;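 note: signal also drops with host cell toxicity which is not excluded here; 0% = plate median of DMSO wells and 100% = zero luminescence signal; higher percent means less beta-gal luminescence so fewer parasites; stock transfer was 50 nL into about 50 µL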
# UCH37 DUB inh: inhibitors of human UCH37 deubiquitinase, primary screen, biochemical, Ub-AMC cleavage, fluorescence. Ubiquitin carboxyl-terminal hydrolase isozyme L5 (Homo sapiens), Q9Y5K5. purified proteasome/UCH37. inhibition, % (no concentration beside the values). actives 0.33% (n = 330,000). AID 588478, 2011;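 active = mean of two replicates above 20%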;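 note: 0% = compound-free wells with enzyme and 100% = wells lacking proteasome; stock transfer was 100 nL into about 20 µL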
# Target sequence (Q9Y5K5 whole entry, looked up): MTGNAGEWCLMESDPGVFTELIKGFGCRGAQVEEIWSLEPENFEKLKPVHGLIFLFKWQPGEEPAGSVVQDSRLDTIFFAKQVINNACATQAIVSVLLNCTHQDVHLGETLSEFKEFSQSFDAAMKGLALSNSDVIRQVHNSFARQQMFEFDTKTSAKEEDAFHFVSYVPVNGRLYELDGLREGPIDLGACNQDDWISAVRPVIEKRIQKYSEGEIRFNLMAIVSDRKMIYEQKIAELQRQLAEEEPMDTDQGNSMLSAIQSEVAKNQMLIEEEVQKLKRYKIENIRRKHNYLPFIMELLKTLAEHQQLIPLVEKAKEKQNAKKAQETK
#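 System: Proteasome-associated human UCH37 deubiquitinase; Input: 0.15 nM proteasome in added enzyme buffer; Also added: Ub-AMC substrate from 1 µM stock; Incubation: 30 min compound-proteasome preincubation then 25 min substrate reaction, room temperature; Detection: fluorescence, ex 355 nm, em 460 nm; Read-out: % inhibition of Ub-AMC cleavage fluorescence; Benchmarks: no-proteasome and no-compound wells.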
# Beta apoptosis: inhibitors of cytokine-induced beta cell apoptosis, primary screen, luminescence. INS-1E cytokine-induced death, ATP luminescence, 48 h; percent of positive-control rescue, neutral wells zero. protection from apoptosis, % (concentration not given with the values). actives 0.8% (n = 300,000);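 active = all replicates at 75% or more, or half of them and the mean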;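 note: 0% = cytokine-treated negative control wells and 100% = positive control rescue; higher means more ATP so stronger rescue from cytokine killing; wells of about 40 µL received 100 nL stock; the first replicate is given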
# MLL AF4-AF9 inh: inhibitors of AF4 peptide binding to AF9, primary screen, biochemical, AlphaScreen, biotin-AF4 peptide, FLAG-AF9, single point; actives 0.47% (n = 350,000); inhibition, % at 10 µM; Protein AF-9 (Homo sapiens), P42568; AID 651704, 2012;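 active = every replicate reaching a set inhibition limit, whatever the replicate mean, cut at about 25% in these data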;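 note: 0% = plate neutral control median and 100% = total signal loss; the record names both 10 and 1 µM as test concentration; the first replicate is given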
# Target sequence (P42568 whole entry, looked up): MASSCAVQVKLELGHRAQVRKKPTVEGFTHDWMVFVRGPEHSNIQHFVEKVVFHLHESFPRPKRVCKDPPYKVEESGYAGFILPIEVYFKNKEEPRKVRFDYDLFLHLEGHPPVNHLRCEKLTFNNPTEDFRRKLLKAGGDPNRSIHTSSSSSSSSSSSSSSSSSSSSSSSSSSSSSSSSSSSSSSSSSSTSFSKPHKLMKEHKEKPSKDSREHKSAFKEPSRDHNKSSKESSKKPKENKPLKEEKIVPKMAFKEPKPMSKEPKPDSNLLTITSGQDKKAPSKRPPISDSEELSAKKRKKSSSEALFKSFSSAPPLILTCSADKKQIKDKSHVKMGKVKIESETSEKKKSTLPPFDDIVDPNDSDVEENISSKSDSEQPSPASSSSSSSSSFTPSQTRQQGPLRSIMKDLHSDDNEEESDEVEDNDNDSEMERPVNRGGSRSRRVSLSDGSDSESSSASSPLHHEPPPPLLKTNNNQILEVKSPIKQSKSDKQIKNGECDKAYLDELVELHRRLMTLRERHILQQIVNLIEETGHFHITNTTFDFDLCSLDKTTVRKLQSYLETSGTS
# FGF22 binding: binders of human FGF22 protein, primary screen, FGF22 synaptogenesis inhibitor project, biophysical, thermal shift, single point | recombinant FGF22 thermal shift, SYPRO orange fluorescence; percent of sucrose octasulfate shift, DMSO zero | calls only at 9.99 µM | actives 1.5% (n = 340,000) | AID 651658, 2012;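 active = melting point raised past a set limit in the mean and every replicate; three in four hits are not shown here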
# Target sequence (Q9HCT0 whole entry, looked up): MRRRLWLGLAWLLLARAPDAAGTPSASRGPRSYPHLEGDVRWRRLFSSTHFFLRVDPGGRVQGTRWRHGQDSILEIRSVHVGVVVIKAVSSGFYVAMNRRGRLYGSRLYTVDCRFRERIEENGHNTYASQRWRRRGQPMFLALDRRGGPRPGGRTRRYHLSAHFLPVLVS
# E coli growth: E. coli growth inhibition, primary screen, OD600; AID 1053175, 2014; Escherichia coli growth, 23 h; stronger effect = lower value; OD600 absorbance (test concentration not listed); actives 0.21% (n = 330,000);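 active = OD600 absorbance below the run mean of sample wells minus 3.6 SD, in any replicate, cut at about 0.56 in these data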;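 note: stock transfer was 300 nL into about 60 µL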
# rRNA inh HTS OD600: also measured in rRNA inh HTS; calls as there; OD600 change, %; measured here: OD600 growth;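 optical density of the mix in the first replicate; 0 = DMSO median and -100 = no signal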
# rRNA inh HTS RFP: second read-out of rRNA inh HTS, no call of its own (marks repeat the call); RFP signal change, %; measured here: RFP humanized mutant strains;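 first replicate; 0 = DMSO median and -100 = no signal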
# * marks the source's active call; other numbers are inactive results; i = inactive; x = not tested or not shown. The list is partial (hit frequency here may not be typical).
# Order of results – A1 inh, rRNA inh HTS, rRNA inh HTS OD600, rRNA inh HTS RFP, T cruzi inh, UCH37 DUB inh, Beta apoptosis, MLL AF4-AF9 inh, FGF22 binding, E coli growth
CCOC(=O)c1c(C)nc2c(c1-c1ccccc1)C(=O)CCC2
    1.6, x, x, x, -14.0, 1.7, -12.7, x, x, 0.704
CC(NC(=O)COC(=O)c1cc(Cl)ccc1O)C1CC2CCC1C2 (centres undefined)
    0.7, 5.0, 5.0, -0.6, x, -18.2, -6.4, 0.7, i, 0.671
CCOC(=O)c1c(NC(=O)c2cc(C)on2)c2cc([N+](=O)[O-])ccc2n1C
    0.0, x, x, x, x, -4.4, 26.6, x, x, 0.678
CCOC(=O)C1CCCN(C(=O)Cn2sc3nc(C)cc(C)c3c2=O)C1 (centres undefined)
    0.2, x, x, x, 30.8, 8.4, 3.8, x, x, 0.743
CCOC(=O)CSc1nnc(CNC(=O)c2cccc(C)c2)n1-c1ccccc1OC
    1.7, x, x, x, -12.0, -0.3, -2.6, x, x, 0.707
CCn1c(CNC(=O)COc2ccc(C(C)C)cc2)nnc1SCC(=O)Nc1ccccc1C(C)C
    1.2, x, x, x, -11.4, 0.8, 6.1, x, x, 0.712
O=c1oc2ccccc2c2c1nc(C(F)(F)F)n2-c1ccccc1
    0.9, x, x, x, 4.5, 1.6, -2.5, x, x, 0.738
COc1ccc(Cn2cc(C(=O)c3ccccc3)c(=O)c3cc(OC)ccc32)cc1
    1.1, -8.8, -0.1, 0.1, -0.8, 4.3, -12.8, 1.3, i, 0.715
Cc1ccc(S(=O)(=O)N2CCN(C(=O)CCC(=O)NC3CCCc4ccccc43)CC2)cc1 (centres undefined)
    1.5, x, x, x, -3.6, 3.7, -5.5, x, x, 0.693
Cc1cc(C)n2nc(C(=O)N/N=C/c3cccc(Cl)c3)nc2n1
    -1.1, 2.9, -6.4, -2.3, 4.7, x, 5.9, 0.3, i, x
C=CCn1c(N2C(=O)CC(Cc3ccccc3)C2=O)nc2ccccc21 (centres undefined)
    -0.4, x, x, x, -1.4, 4.6, 8.4, x, x, 0.709
CN1CCN(c2ccc(NC(=O)COc3ccccc3)cc2Cl)CC1
    x, -0.3, -0.1, -3.5, 27.9, 4.0, x, -3.4, i, 0.683
COc1ccc(OC)c(NC(=O)CSc2nnc(-c3ccco3)n2-c2ccccc2)c1
    0.7, x, x, x, -7.0, 3.1, -4.8, x, x, 0.716
Cc1nc2sc(C(c3ccccc3)N3CC(C)OC(C)C3)c(O)n2n1 (centres undefined)
    -0.5, x, x, x, -1.3, 4.5, -1.2, x, x, 0.746
CC(C)N1CCN(Cc2ccc(Oc3ncccn3)cc2)CC1CCO (centres undefined)
    -0.4, 10.5, 7.8, 6.3, 24.5, 1.7, -2.8, 4.7, i, 0.665
CCOCc1nnc(NC(=O)CCS(=O)(=O)Cc2ccccc2)s1
    1.3, 14.4, 18.2, 0.6, -17.4, -3.1, -4.2, -4.8, i, 0.693
CCC(=O)N1CCc2cc(S(=O)(=O)CCC(=O)N3CCN(c4ccc(C(C)=O)cc4)CC3)ccc21
    -1.4, 0.0, 1.9, -1.8, -5.7, -0.1, 3.5, -0.8, i, 0.683
COC(=O)c1nn(-c2cccc(C(F)(F)F)c2)c(=O)cc1Sc1ccccn1
    0.0, x, x, x, -30.9, 8.0, -8.1, x, x, 0.728
Cc1cc(=S)n(-c2ccccc2)n1C
    0.0, x, x, x, -9.1, 5.0, 0.4, x, x, 0.767
O=C(CNC(=O)c1cnccn1)Nc1ccc(F)c(F)c1F
    0.6, x, x, x, -3.8, 3.1, -1.9, x, x, 0.704
Clc1ccc(Oc2cnns2)c(Cl)c1
    0.2, x, x, x, -2.7, 1.4, -2.6, x, x, 0.77
COCCNC(=S)N(CCN(C)C)Cc1cc2cc3c(cc2[nH]c1=O)OCO3
    1.2, 0.6, 3.3, -3.6, -5.0, -110.1, -9.8, -0.9, i, 0.682
COc1ccc(C(CC(=O)O)NC(=O)COc2ccc(C)cc2)cc1OC (centres undefined)
    0.8, x, x, x, -3.9, -1.6, -2.1, x, x, 0.726
O=C(c1ccc2c(c1)OCO2)N1CCCc2ccccc21
    0.1, x, x, x, -3.6, 0.3, 3.7, x, x, 0.769
Cc1cccc(CSc2nc3sc(C)c(C)c3c(=O)n2Cc2ccco2)c1
    0.4, x, x, x, 43.0, 5.9, x, x, x, 0.72
C=CCN1C(=O)/C(=C/c2ccsc2)SC1=S
    -1.0, 1.6, -0.6, -12.0, 37.7, 0.9, -27.4, 2.7, i, 0.662
Cn1c(=O)c2c(=O)cc(NNC(=O)CC#N)[nH]c2n(C)c1=O
    0.1, 1.1, -1.2, -1.6, 37.1, 0.0, -0.9, -3.3, i, 0.717
O=C(COc1ccc([N+](=O)[O-])cc1)Nc1ccccc1C(=O)NC1CC1
    0.4, -0.7, 8.0, 2.0, -7.4, -0.3, -1.8, -1.1, i, 0.65
CCOC(=O)CSc1nnc(Cn2c(=O)sc3ccccc32)n1C
    -0.4, 8.8, 9.8, -2.6, -7.9, 3.2, -7.5, 0.6, i, 0.791
CC(NC(=O)Nc1ccc2c(c1)OCO2)c1ccncc1 (centres undefined)
    1.7, 13.1, 4.7, 1.5, -14.2, 0.0, -5.5, 1.8, i, 0.708
CN(C)S(=O)(=O)c1ccc(NC(=O)N2CCN(c3ccccc3)CC2)cc1
    -0.3, x, x, x, 9.5, 1.4, -0.4, x, x, 0.686
O=C(NC(=S)/C(=C1\CCCCCN1)[N+](=O)[O-])c1ccccc1
    -11.0, x, x, x, x, 15.0, 0.5, x, x, 0.684
Cc1nnc(SCC(=O)Nc2cccc(S(N)(=O)=O)c2)n1-c1ccccc1
    0.4, 3.7, 3.1, 1.5, -8.5, 3.5, x, -3.9, i, 0.711
CCCCN1C(=N)N([C@@H](C)CN2CCC[C@H]2CN2C(N)=NC[C@H]2C(C)C)C[C@H]1[C@H](C)CC
    -0.3, 5.9, 3.4, 0.2, x, 3.1, 2.0, 2.1, i, 0.689
CCOc1ccc(N2CC(C(=O)NCc3ccc4c(c3)OCO4)CC2=O)cc1 (centres undefined)
    0.4, 6.0, 24.2, -1.1, 1.1, -0.2, x, -0.4, i, 0.657
CC1CN(c2nc3ccccn3c(=O)c2/C=C(\C#N)C(N)=O)CC(C)O1 (centres undefined)
    0.4, 12.8, 11.2, -0.2, -22.4, 3.6, -1.7, -1.7, i, 0.667
COc1ccc(S(=O)(=O)n2nc(-c3cc(OC)c(OC)c(OC)c3)cc2N)cc1OC
    0.1, 3.4, 7.6, -2.8, x, 3.2, 1.9, 3.0, i, 0.751
CCCSCCCNC(=O)c1ccc(C)c(NC(=O)C2=C(C)OCCS2)c1
    -0.1, -8.5, -8.8, -1.0, -2.7, -0.8, x, -4.1, i, 0.696
COCCNC(=O)/C(C#N)=C/c1c(N2CCN(c3cccc(Cl)c3)CC2)nc2c(C)cccn2c1=O
    0.5, -3.0, -9.7, 2.0, 11.5, -49.4, 9.2, 7.1, i, 0.676
CC1(C)CC(=O)C=C(NCCN2CCN(C(=O)Nc3ccccc3)CC2)C1
    -0.1, x, x, x, 0.6, 4.1, x, x, x, 0.642
CCOC(=O)c1c(C)cc(C)[nH]c1=O
    0.3, 22.1, 15.4, 2.2, -15.2, -2.1, -1.4, -0.4, i, 0.656
COC(=O)c1cn(NC(=O)Cc2ccccc2Br)c(=O)c2ccccc12
    0.0, 7.3, 18.2, 2.3, -3.9, 0.7, 5.1, 2.0, i, 0.708
COc1cccc2c1cc1c(=O)n(CC(=O)NCc3ccccn3)nc(C)n12
    1.4, x, x, x, 48.3, -113.4, 1.2, x, x, 0.73
O=C(c1ccc(=O)[nH]c1)N1CCN(S(=O)(=O)c2ccc3ccccc3c2)CC1
    0.8, 5.4, 4.1, 2.3, x, 2.6, -7.8, -1.9, i, 0.734
CC(=O)/C(=N\Nc1ccccc1)Oc1ccc(Br)cc1
    0.6, -17.2, -7.6, 8.0, 27.1, x, -0.8, 14.2, i, x
CCOC(=O)C1C(=O)NC(N2CCOCC2)=NC1c1ccco1 (centres undefined)
    1.1, x, x, x, -13.5, 0.7, -6.6, x, x, 0.779
O=C(C1=C(O)C(=O)N(CC2CCCO2)C1c1ccccc1F)c1ccco1 (centres undefined)
    1.3, 5.4, 3.0, 1.0, -6.7, 9.2, -3.2, -2.4, i, 0.703
O=C(Cn1c(=O)c2sccc2n(Cc2ccc([N+](=O)[O-])cc2)c1=O)NCCc1ccccc1
    0.2, x, x, x, 16.6, 0.7, 2.0, x, x, 0.654
COc1ccc(NC(=O)CN2CCCCC2)c([N+](=O)[O-])c1
    -0.3, -3.4, 2.5, -6.4, 10.9, 3.3, -4.4, 5.8, i, 0.644
CC(NC(=O)c1cc2cc(F)ccc2[nH]1)c1ccccc1 (centres undefined)
    0.3, -33.9, -44.7, -5.2, 17.5, -1.4, x, 0.5, i, 0.656
O=C(COC(=O)c1nc(Cl)c(Cl)c(Cl)c1Cl)NCc1ccccc1
    x, 13.1, 4.8, 4.8, x, 0.9, x, -1.5, i, 0.683
O=C(NCc1cccs1)c1nn2cccnc2c1Cl
    0.3, x, x, x, 3.3, -0.8, -0.2, x, x, 0.68
O=C(Cc1ncon1)Nc1ccc(F)c(F)c1F
    -1.0, 0.4, 4.4, 3.5, 1.2, 4.9, 0.1, -3.8, i, 0.677
Cn1cc(S(=O)(=O)NCCc2ccccc2)c(=O)n(C)c1=O
    0.0, 11.2, 0.8, -4.8, -1.0, -0.3, 0.2, 0.5, i, 0.672
CC1(C)CC(=O)C=C(c2ccc(F)nc2)C1
    0.7, 14.2, 3.9, 5.4, x, 1.2, 0.0, 4.0, i, 0.688
O=C(Nc1ccc2c(c1)OCCO2)C1CCN(S(=O)(=O)c2ccc3c(c2)OCCO3)CC1
    -0.2, -31.8*, -20.2*, -5.8*, 10.1, -0.4, -5.4, x, x, 0.664

# A stretch from the list above, as a working copy:
# Order of results – A1 inh, rRNA inh HTS, rRNA inh HTS OD600, rRNA inh HTS RFP, T cruzi inh, UCH37 DUB inh, Beta apoptosis, MLL AF4-AF9 inh, FGF22 binding, E coli growth
O=C(NCc1cccs1)c1nn2cccnc2c1Cl
    0.3, x, x, x, 3.3, -0.8, -0.2, x, x, 0.68
O=C(Cc1ncon1)Nc1ccc(F)c(F)c1F
    -1.0, 0.4, 4.4, 3.5, 1.2, 4.9, 0.1, -3.8, i, 0.677

# Screens (PubChem)
